Screening results as filed in PubChem.
HIV TAR-Tat: TAR RNA-Tat peptide displacers, HIV-1, primary screen, biochemical, FRET, FAM/TAMRA-labeled Tat; HIV-1 TAR RNA, Tat peptide displacement FRET; hits give high values; AID 1259389, 2018; 0.6% of 100,000 active; z-score (no concentration beside the values);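 further: score is relative to mean and SD of negative controls; some compounds called inactive have numbers as strong as hits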
CDC25B CDK2 inh: primary biochemical HTRF screen for blockers of M-phase inducer phosphatase 2 binding to CDK2/cyclin A | z-score (no concentration beside the values) | HTRF CDC25B-CDK2/CyclinA binding, anti-His/anti-Flag; hits give high values | 0.72% of 94,000 active | P30305+P24941;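 further: score is relative to mean and SD of negative controls; strong numbers were not always called active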
* hit, by the source's call; . = no result given.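 How the source made its calls: active means z-score from 3 up in half or more of its runs; inactive means the rest.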

The first two records (preview)
Value order: HIV TAR-Tat	CDC25B CDK2 inh
Cc1nc2nc(C)c(CCC(=O)N3CCOCC3)c(C)n2n1
    -0.49	-1.17
O=C1C=C(Nc2cccc(Cl)c2)CC(c2ccco2)C1 (configuration not stated)
    1.44	-1.02

All compounds of this part, repeating the preview:
Value order: HIV TAR-Tat	CDC25B CDK2 inh
Cc1nc2nc(C)c(CCC(=O)N3CCOCC3)c(C)n2n1
    -0.49	-1.17
O=C1C=C(Nc2cccc(Cl)c2)CC(c2ccco2)C1 (configuration not stated)
    1.44	-1.02
Cc1cc(C)c(S(=O)(=O)N2CCc3cc4ccccc4nc32)c(C)c1
    -1.1	-0.76
CCc1ccc2[nH]cc(C(=O)O)c(=O)c2c1
    -0.73	0.47
CCCN(CCC)C(=O)C1Sc2nnc(C)n2NC1c1ccc(Cl)cc1 (configuration not stated)
    0.09	-1.2
Clc1cc(Cl)c(Cl)c(Cl)c1Cl
    .	-2.32
Cc1ccc(CSc2nc3c(c(=O)[nH]2)C(c2cc(C)ccc2C)CC(=O)N3)cc1 (configuration not stated)
    1.47	-1.35
CC1=C(C(=O)OCc2ccccc2)C(c2cccc(Cl)c2)C2=C(CCCC2=O)N1 (configuration not stated)
    -0.05	-0.95
COc1ccccc1-c1csc2c1NC(=O)CC2c1cccc(OC)c1OC (configuration not stated)
    1.25	.
COc1cccc(OCc2cc(=O)n3c(-c4ccccc4)csc3n2)c1
    -0.63	-1.08
CC(C)CCn1c(=O)c2c(nc3n2CCS3)n(C)c1=O
    -1.24	-0.39
CCOC(=O)c1sc2ccccc2c1S(=O)(=O)N1CCN(c2ccccn2)CC1
    0.24	.
C(#Cc1cccs1)c1cnc2ccccc2c1
    -0.28	0.46
CCOC(=O)c1c(NC(=O)c2ccco2)sc2c1CCC(C)C2 (configuration not stated)
    0.89	0.08
CCN(CC)CCN(C(=O)c1ccco1)c1nc2ccc(Cl)cc2s1
    1.71	.
O=C1CS(=O)(=O)N(Cc2ccc(F)cc2)c2ccsc21
    -0.68	-1.56
CN(CC(=O)NCCC1=CCCCC1)S(=O)(=O)c1ccc2[nH]c3c(c2c1)CCCC3
    0.62	.
O=C(NNS(=O)(=O)c1ccc(F)cc1F)c1csc(-c2cccnc2)n1
    .	0.76
Cc1ccc2c(c1)-c1c(c(C(=O)NC3CCCC3)nn1C)CS2
    1.49	.
COc1ccc(OC)c(-n2nnc(S(=O)(=O)c3ccc(C(C)(C)C)cc3)c2C)c1
    0.3	3.51
CCOC(=O)C(CC)Sc1nnc(CSc2ncccn2)n1-c1ccc(Cl)cc1 (configuration not stated)
    1.33	-2.38
O=C1CSc2ccc(S(=O)(=O)CCC(=O)N3CCN(c4ccccc4)CC3)cc2N1
    0.81	.
COc1ccc(C2C(C#N)=C(N)Oc3cc(O)ccc32)cc1Br (configuration not stated)
    -0.78	-1.21
Cc1ccc(-c2coc(-c3cccc(NS(=O)(=O)c4ccc(C)cc4C)c3)n2)cc1
    0.83	.
COc1ccc(OCC(O)CNC(=O)C2=Cc3cc(Cl)ccc3OC2)cc1 (configuration not stated)
    .	-0.46
Cc1oc2ncnc(N3CCCCC3)c2c1C(=O)N1CCN(C)CC1
    0	.
Cc1cccc(-c2noc(CNS(=O)(=O)c3ccc(Br)cc3)n2)c1
    -4.48	1.8
CCOC(=O)C1=C(C)NC(C)=C(C(=O)OCC)C1c1ccccc1/C=C/C(=O)OC(C)(C)C
    2.66	.
Cc1c(C(=O)N2CCCC2)c(S(=O)(=O)N2CCCc3ccccc32)c(C)n1C
    1.16	.
COc1cc(OC)c(NC(=O)c2cc3c(s2)-c2ccccc2OC3)cc1Cl
    0.49	-0.44

Record cards, as listed above. Screens in order: HIV TAR-Tat, CDC25B CDK2 inh
Cc1ccc2c(c1)-c1c(c(C(=O)NC3CCCC3)nn1C)CS2 is listed with 1.49, .
CCOC(=O)C1=C(C)NC(C)=C(C(=O)OCC)C1c1ccccc1/C=C/C(=O)OC(C)(C)C is listed with 2.66, .
CCc1ccc2[nH]cc(C(=O)O)c(=O)c2c1 is listed with -0.73, 0.47

Next part
Value order: HIV TAR-Tat	CDC25B CDK2 inh
Cc1nn(-c2ccccc2)c2c1N(C(=O)CCC(=O)N1CCN(c3ccccc3F)CC1)CCS2
    1.18	.
CCOc1cc(N2CCOCC2)c(OCC)cc1NS(=O)(=O)c1ccccc1
    .	-0.93
O=C(Nc1cccc2ncccc12)c1sc2ccccc2c1Cl
    2.15	-2.07
COC(=O)C(C)n1cnc2c(oc3ccccc32)c1=O (configuration not stated)
    1.88	.
O=C(c1cc(=O)c2ccccc2o1)N(Cc1cccc(Cl)c1)c1ccccn1
    -0.78	-0.99
O=c1cc2c(nn1Cc1ccc(Cl)cc1)CCCC2
    -0.24	.
O=C(CCCn1c(=O)c2cccn2c2cccnc21)NCCCN1CCc2ccccc2C1
    -1.95	.
O=C(Nc1cccc(Br)c1)c1cccs1
    -0.61	0.8
Cc1ccc(S(=O)(=O)N=S2(=O)CCCS(=O)(=O)C2)cc1 (configuration not stated)
    .	1.34
CCN1CCCC1CNC(=O)c1cc2cc(S(=O)(=O)N(C)C)ccc2n1CC (configuration not stated)
    -0.31	.
CC(=O)c1ccc(NC(=S)NC(NC(=O)Cc2cccc3ccccc23)C(Cl)(Cl)Cl)cc1 (configuration not stated)
    .	-3.4
CC1C(=O)N2CCCc3cc(S(=O)(=O)N(C)Cc4ccccc4)cc1c32 (configuration not stated)
    1.89	.
O=C(Oc1ccc2ccccc2c1)c1cncc(Br)c1
    1.9	-0.63
O=C(CCC1=NS(=O)(=O)c2cc(Br)cnc2N1)N1CCCCC1
    1.33	-1.06
COc1cc(NC(=O)C(C)SC2=Nc3ccccc3C3=NC(CC(C)C)C(=O)N23)cc(OC)c1 (configuration not stated)
    -0.33	.
O=C(NCCCn1c(C(F)(F)F)nc2cccnc21)Nc1ccc(F)cc1
    1.4	.
O=C(CSc1nc(-c2ccccc2Cl)nc2cc(=O)[nH]n12)N1CCCC1
    -5.45	.
CN(C)S(=O)(=O)c1ccc2nc(NC(=O)C3COc4ccccc4O3)sc2c1 (configuration not stated)
    0.31	.
CN(Cc1ccccc1)S(=O)(=O)c1cc(F)ccc1CN1C(=O)c2cccnc2C1=O
    0.4	.
COc1ccc(CN2CCN(C(=O)c3c(OC)cccc3OC)CC2)c(OC)c1
    .	-0.31
Fc1cccc(CN2C3=NCCCN3c3ccccc32)c1
    -0.35	-0.93
COc1ccccc1C1CC(=O)N2C(=C1C#N)SCC2(O)c1ccccc1 (configuration not stated)
    .	-6.98
COc1ccc(-n2nnnc2C2CCN(S(=O)(=O)c3ccc(Cl)cc3)CC2)cc1
    0.86	-0.79
O=c1cc(CN2CCN(c3ncccn3)CC2)nc2sc(C3CC3)nn12
    -0.79	.
CCc1ccc2c(c1)C(O)(C1SC(N)=NC1=O)C(=O)N2 (configuration not stated)
    1.57	.
CCCCN(C)c1nnc(NC(=O)Nc2cc(C)cc(C)c2)s1
    1.47	-1.51
CCCCOc1ccc(S(=O)(=O)n2nc(C)c(S(=O)(=O)N(CC)CC)c2C)cc1
    2.06	.
COc1cc(NS(=O)(=O)c2ccc(-c3cnc(C4CC4)o3)cc2)cc(OC)c1
    1.47	.
Cc1ccc(-c2cn3c(n2)COc2ccccc2-3)cc1
    2.09	-0.72
Cc1nc(N2CCOCC2)c2c(C(=O)Nc3ccc4c(c3)OCCO4)c(C)oc2n1
    0.2	.
COc1cccc(CN2CCN(Cc3ccccc3Br)CC2)c1OC
    -0.17	1.11
O=C1CCS(=O)(=O)c2ccccc2N1Cc1ccccc1F
    4.77	0.77
COc1ccc(NC2c3ncccc3C(=O)N2c2ccccc2)cc1Cl (configuration not stated)
    1.26	.
O=C(O)CCC(=O)N1CCN(C(=O)c2ccco2)CC1
    0.97	-0.21
CCn1c(=O)c2sccc2n2c(CCCC(=O)N3CCN(C4CCCCC4)CC3)nnc12
    -0.9	.
CCOC(=O)c1nn(-c2ccc(Cl)cc2)c(=O)c2c(N)scc12
    -2.95	18.4*
NNC(=O)c1n[nH]c2ccccc12
    .	-0.6
O=C(CCc1nc2ccccc2[nH]1)N1CCN(c2ccccn2)CC1
    0.5	1.34
C=C(C)c1cccc(C(C)(C)NC(=O)NCC2COCCO2)c1 (configuration not stated)
    .	0.16
COC(=O)C(Cc1c[nH]c2ccccc12)NC(=O)C(=O)c1c(C)[nH]c2ccccc12 (configuration not stated)
    0.46	0.68
CSc1nnc2c(n1)OC(c1ccccc1OCC(=O)O)Nc1ccccc1-2 (configuration not stated)
    0.05	-1.67
CN1C(=O)C(C)(C)c2cc(S(=O)(=O)N(C)C3CCCCC3)ccc21
    0.54	.
Cc1ccc2oc3c(c(=O)c2c1)C(c1ccccc1)N(Cc1ccc2c(c1)OCO2)C3=O (configuration not stated)
    1.35	-0.13
CCOC(=O)c1c(NC(=O)c2cc(=O)c3ccccc3o2)sc2c1CCCC2
    0.62	-0.3
NS(=O)(=O)c1cccc(NC(=O)C2CCCCC2)c1
    .	-1.7
CCc1ccc(C2c3c(oc4ccccc4c3=O)C(=O)N2c2nncs2)cc1 (configuration not stated)
    0.92	0
C/C=C/C=N/NC(=O)OCC
    .	-1.36
CCCCOC(=O)C1=C(C)NC2=C(C(=O)CC(c3ccccc3)C2)C1c1ccco1 (configuration not stated)
    1.55	1.35
O=C(CCN1CCCCC1)Nc1nc(-c2ccc(Cl)cc2)cs1
    .	-0.7
COc1c2ccoc2c(OC)c2oc(=O)ccc12
    0.57	.
CCc1nn(CC(=O)N2CCN(c3ccc(Cl)cc3)CC2)c(=O)c2cc3sccc3n12
    1.15	-1.53
O=C(Oc1cccc(NC2=NS(=O)(=O)c3ccccc32)c1)c1cccs1
    0.47	-0.96
CCc1nn(CC(=O)NC2CCC(C)CC2)c(=O)c2cc3sccc3n12 (configuration not stated)
    -1.6	-0.25
CCN(CC)CCOc1ccc(/C(=C(\Cl)c2ccccc2)c2ccccc2)cc1
    0.17	.
CCCCN1C(=O)C2(SC(NC(C)=O)=NN2C(C)=O)c2cc(C)ccc21 (configuration not stated)
    .	-1.37
Cc1cc(C)cc(-n2nc3c(c2NC(=O)c2cccs2)CSC3)c1
    .	-1.52
Brc1cccc(-c2nc(-c3ccccn3)no2)c1
    4.3	-1.23
O=C1CSC(c2ccc(Cl)cc2)N1CCN1C(=O)CSC1c1ccc(Cl)cc1 (configuration not stated)
    .	-2.04
Cc1noc(C)c1S(=O)(=O)N1CCN(C(c2ccccc2)c2ccc(Cl)cc2)CC1 (configuration not stated)
    1.31	-2.14
CN1CCc2c(sc(-n3cccc3)c2CNC(=O)Nc2ccc(Br)cc2)C1
    -7.6	.

Additional structures follow:
Value order: HIV TAR-Tat	CDC25B CDK2 inh
Cc1cc(S(=O)(=O)Nc2cc3c(cc2N2CCCCC2)n(C)c(=O)n3C)ccc1F
    1.41	-2.42
O=C1CCc2cc(S(=O)(=O)NCc3ccccc3Cl)cc3c2N1CC3
    1.02	.
O=C(NCCCN1CCCC1)C1CCN(c2ccc(F)cc2)C1=O (configuration not stated)
    2.26	.
Cc1cc(C)c2[nH]c(C)c(CN3CCN(C)CC3)c(=O)c2c1
    -1.97	0.39
Cc1ccc(C)c(-n2nnc(-c3nc(-c4ccncc4)no3)c2N)c1
    -1.42	.
O=C1CCCc2cc(S(=O)(=O)NCCN3CCc4ccccc4C3)ccc2N1
    0.6	.
O=C(c1c[nH]c2ccc(Cl)cc2c1=O)N1CCOCC1
    -0.58	0.99
Cc1cc2ccccc2n2c(SCC(=O)Nc3ccc4c(c3)OCCO4)nnc12
    .	-1.49
O=C(NCc1ccc2c(c1)OCO2)c1cc2c(s1)-c1ccc(Cl)cc1S(=O)(=O)C2
    2.57	-14.7
CCOC(=O)c1sc2cccc(F)c2c1S(=O)(=O)Nc1ccc(F)c(F)c1
    0.36	.
CN(C)CCCN(C(=O)c1ccc2c(c1)OCCO2)c1nc2c(F)cc(F)cc2s1
    1.63	.
CCCCCOC(=O)C1=C(C)Nc2nnnn2C1c1ccccc1 (configuration not stated)
    -0.32	.
O=C(CSc1nccn1Cc1ccc2c(c1)OCO2)Nc1nccs1
    -3.37	.
Cc1nc(-c2cccs2)c(CC(=O)NCc2ccco2)s1
    0.16	-1.23
CN(CC(=O)NC1CCCCCCC1)S(=O)(=O)c1ccc2c(c1)n(C)c(=O)c(=O)n2C
    .	0.19
Nc1c(-c2ccc3ccccc3n2)c2ccc([N+](=O)[O-])cc2c(=O)n1Cc1ccccc1
    .	0.64
CS(=O)(=O)c1ccc2nc(NC(=O)CS(=O)(=O)c3ccc(Cl)cc3)sc2c1
    0.34	.
Cc1ccc2nc(CCCC(=O)OC(C)C)[nH]c2c1
    -0.09	0.42
O=C(NC1CCCC1)c1csc2c1CCCC2
    -0.54	-1.35
O=c1c2sccc2n(Cc2cc(=O)n3ccccc3n2)c(=O)n1-c1ccc(F)cc1
    .	1.15
Cc1cc(NCCOCCO)n2nc(C(F)(F)F)c(-c3ccc(F)cc3)c2n1
    0.02	1.28
O=C1CC(c2coc3ccccc3c2=O)Sc2ccccc2N1 (configuration not stated)
    .	-2.59

Sorted by molar mass (ascending): part of the list above
Value order: HIV TAR-Tat	CDC25B CDK2 inh
O=C(CSc1nccn1Cc1ccc2c(c1)OCO2)Nc1nccs1
    -3.37	.
O=C1CCc2cc(S(=O)(=O)NCc3ccccc3Cl)cc3c2N1CC3
    1.02	.
Nc1c(-c2ccc3ccccc3n2)c2ccc([N+](=O)[O-])cc2c(=O)n1Cc1ccccc1
    .	0.64

Compounds were not picked by outcome. About 0.9% of those tested had a hit in this group.
